Assay outcomes deposited in PubChem BioAssay by ICCB-Longwood Screening Facility, Harvard Medical School.
PV pol inh: inhibitors of poliovirus RNA polymerase binding and polymerization. P03300. poliovirus polymerase elongation, fluorescence polarization; hits give low values. % elongation, % (compound at 16.7 µg/mL). 150,000 tested, 0.66% active. AID 588519; in the data active = % elongation below about 90%; note: some results filed as inactive read as strong as hits
Target sequence (P03300 1749-2209 limits assumed): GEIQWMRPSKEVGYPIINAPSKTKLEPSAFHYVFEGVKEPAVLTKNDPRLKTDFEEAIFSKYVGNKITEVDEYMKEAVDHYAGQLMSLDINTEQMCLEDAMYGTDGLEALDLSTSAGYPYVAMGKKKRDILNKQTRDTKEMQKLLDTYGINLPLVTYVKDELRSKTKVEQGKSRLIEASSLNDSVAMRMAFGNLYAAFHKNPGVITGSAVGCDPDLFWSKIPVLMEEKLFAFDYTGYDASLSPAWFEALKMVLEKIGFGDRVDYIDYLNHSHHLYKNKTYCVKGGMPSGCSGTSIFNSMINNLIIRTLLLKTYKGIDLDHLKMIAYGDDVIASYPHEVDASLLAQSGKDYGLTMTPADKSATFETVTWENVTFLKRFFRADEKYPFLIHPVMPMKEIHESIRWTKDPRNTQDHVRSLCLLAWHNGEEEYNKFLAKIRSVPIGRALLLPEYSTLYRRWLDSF
PV pol inh intensity: further read-out of PV pol inh, marked with its call; % elongation; measured here: total intensity read-out; formula for this scale not given here;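 total fluorescence in place of polarization; lower means less elongation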
* hit, by the source's call. Only part of the results is shown. The share of hits here may be higher or lower than overall.

SMILES | PV pol inh | PV pol inh intensity
COc1ccc(C)cc1NS(=O)(=O)c1ccc2c(c1)CCCN2C(C)=O | 109 | 97
COc1cccc(Cn2c(=O)n(CC3CCC(C(=O)N4CCOCC4)CC3)c(=O)c3sccc32)c1 (stereo not given) | 108 | 100
COCCc1nn2c(=O)cc(COC(=O)COc3ccc(F)cc3)nc2s1 | 105 | 96
CCOc1ccc2c(c1)NC(c1cccs1)=NC(c1ccc(F)cc1)=N2 | 102 | 101
CCOC(=O)c1cc2c(=O)n3ccccc3nc2n(CCCOC)c1=NC(=O)C(C)Oc1ccccc1 (stereo not given) | 102 | 103
Cc1ccc(NC(=O)c2ccc(F)c(S(=O)(=O)N3CCc4ccccc4C3)c2)cc1F | 114 | 108
CCC(=O)Nc1ccc2nc(SCc3ccccc3)sc2c1 | 109 | 114
COc1ccccc1CNc1nc2ccccc2c2nc(-c3cccnc3)nn12 | 104 | 108
COc1ccc(C2=C(C)C(=O)N(Cc3ccc(C(=O)Nc4cc(C)ccc4C)cc3)S2(=O)=O)cc1 | 110 | 113
Cc1c(Cl)cccc1-n1ncc(C(=O)N2CCN(c3ncccn3)CC2)c1C1CCN(C(=O)OC(C)(C)C)CC1 | 103 | 109
CC1C(=O)Nc2ccc(S(=O)(=O)N3CCCCC3)cc2NC1=O (stereo not given) | 111 | 112
O=C(NCCc1ccccc1)c1ccc2c(c1)N(Cc1ccc(F)cc1Cl)C(=O)CS2 | 107 | 110
Cc1cc(C)c(NC(=O)Cn2nc(-c3ccncc3)ccc2=O)c(C)c1 | 108 | 108
CC(C)c1ccc2oc(-c3cc(NC(=O)c4cccnc4)ccc3Cl)nc2c1 | 104 | 106
Cc1ccc(Cl)cc1N1CCN(C(c2ccc(F)cc2)c2nnc(-c3ccccc3)o2)CC1 (stereo not given) | 101 | 100
O=C(Nc1nnc(S(=O)(=O)Nc2ccccc2)s1)c1ccccc1Cl | 112 | 115
CCN1CCN(Cc2nc3cc(NC(=O)c4cccc([N+](=O)[O-])c4)ccc3n2CC)CC1 | 106 | 105
O=C(CSc1nc(O)c(C/C=C/c2ccccc2)c(=O)[nH]1)Nc1cccc(F)c1 | 93 | 105
Cn1c(=O)c2sccc2n2c(CCC(=O)N3CCN(c4cccc(Cl)c4)CC3)nnc12 | 100 | 101
O=C(c1ccc(Br)cc1)N1CCN(CCc2ccncc2)CC1 | 102 | 107
CCOC(=O)c1cc2c(=O)n3ccccc3nc2n(CC2CCCO2)c1=NC(=O)c1cccc(C)c1 (stereo not given) | 107 | 106
Cc1ccccc1CS(=O)(=O)Cc1ccc(C(=O)NCCc2ccccc2)o1 | 114 | 111
COc1ccc(N2CCN(c3ccc(-c4nc(-c5ccccc5C)no4)cc3[N+](=O)[O-])CC2)cc1 | 102 | 107
Cc1ccc(C)c(NC(=O)CSc2nncn3c2cc2sccc23)c1 | 103 | 105
CC(=O)N(Cc1cccnc1)c1nc2cc(C)cc(C)c2s1 | 110 | 109
The listing continues:
SMILES | PV pol inh | PV pol inh intensity
COc1ccc(-n2c(/C=C/c3ccccc3F)nc3cc(OC)c(OC)cc3c2=O)cc1Cl | 112 | 108
O=C(NCc1ccc(F)cc1)c1cnc(N2CCCCC2)c2ccccc12 | 109 | 112
Cn1c(=O)oc2cc(S(=O)(=O)CCC(=O)NCCc3ccccc3)ccc21 | 108 | 106
O=c1c2ccccc2nc(/C=C/c2ccccc2F)n1-c1cccc(O)c1 | 103 | 107
Cc1ccc(OC(=O)CSc2nnc(-c3cccs3)o2)cc1C | 102 | 107
COc1cccc(NC(=O)c2sc3nc(C)c(C(=O)Nc4ccc(C)cc4C)c(-c4cccs4)c3c2N)c1 | 113 | 115
CC(NC(=O)c1cc2ccccc2o1)c1ccccc1 (stereo not given) | 104 | 98
CCC(C(=O)NCc1cccc(Br)c1)n1nc(C)c2c(C)n(-c3ccccc3)nc2c1=O (stereo not given) | 110 | 106
C=Cc1ccc(Cn2c(C)c(CNCCc3ccccc3C)c(C(=O)O)c2C)cc1 | 102 | 104
COc1ccc(-c2cc(OC(=O)c3cccc(Cl)c3)c3c(C)oc(C)c3c(=O)c2)cc1OC | 112 | 127
CCc1ccc(C2c3c(n[nH]c3C)C(=O)N2c2ccc(C)cc2)cc1 (stereo not given) | 112 | 112
COc1ccc(C2=C(C)C(=O)N(Cc3ccc(C(=O)NCc4ccc(C)cc4)cc3)S2(=O)=O)cc1 | 108 | 112
CCOc1ccccc1NC(=O)c1cc(=O)c2ccc(C)cc2o1 | 110 | 114
COc1cccc(NC(=O)Cn2c(=O)n(Cc3ccc(C(=O)NCc4ccc(C)cc4)cc3)c(=O)c3ccccc32)c1 | 113 | 114
Cc1cc(N2CCN(c3ccccc3)CC2)n2cnnc2n1 | 114 | 113
CCn1c(=N)c(C(=O)NC2CCCC2)cc2c(=O)n3ccccc3nc21 | 110 | 115
COc1ccc(NC(=O)CSc2oc(-c3ccco3)nc2S(=O)(=O)c2ccc(Br)cc2)c(OC)c1 | 101 | 101
COc1cccc(-c2nn(C)c3sc(C(=O)NCc4ccc(C)cc4)cc23)c1 | 107 | 109
CN(C)c1ccc(CNC(=O)C2CCN(c3nnc(-n4cccc4)s3)CC2)cc1 | 109 | 110
O=C(c1ccccc1Br)N(Cc1ccccc1F)C1CCS(=O)(=O)C1 (stereo not given) | 103 | 94
O=C(CCS(=O)(=O)c1ccc2c(c1)NC(=O)CO2)Nc1cccc(C(F)(F)F)c1 | 108 | 116
CC(C)CSc1oc(-c2ccco2)nc1S(=O)(=O)c1ccc(Br)cc1 | 103 | 103
Cc1ccc(C(C)C)c(OCCSc2nc(-c3ccccc3F)nc3cc(=O)[nH]n23)c1 | 106 | 112
Cc1cccc(NS(=O)(=O)c2ccc3c(c2)C(C)(C)C(=O)N3C)c1 | 103 | 108
COc1cccc(-n2c(=O)c3sccc3n(Cc3cc(=O)n4cc(Cl)ccc4n3)c2=O)c1 | 106 | 111
(more compounds)
SMILES | PV pol inh | PV pol inh intensity
CCOc1ccc(CC(=O)Nc2c(C(=O)c3ccccc3)oc3ccc(OC)cc23)cc1OCC | 107 | 110
Cc1ccc(CNC(=O)CN2C(=O)C3CCCCN3c3ccc(C(=O)N(C)C)cc32)cc1 (stereo not given) | 100 | 108
COc1cccc(Cn2nc(SC)c(S(=O)(=O)c3ccccc3)c2N(C(C)=O)C(C)=O)c1 | 109 | 113
CCOc1ccc(C(=O)OCc2cc(=O)n3nc(C(C)C)sc3n2)cc1 | 107 | 104
CCn1c(CNC(=O)C23CC4CC(CC(C4)C2)C3)nnc1SCC(=O)Nc1ccc(OC)cc1 | 101 | 101
COc1cccc(NC(=O)CSc2nc3ccc(NC(=O)c4cccs4)cc3s2)c1 | 112 | 113
Cc1nn(-c2ccccc2)c2c1N(CC(=O)N1CCN(c3ccc(F)cc3)CC1)C(=O)CS2 | 110 | 98
CCC(=O)N1CCCc2cc(S(=O)(=O)N3CCC(C(=O)NC4CCCCC4)CC3)ccc21 | 118 | 114
CC1CCc2c(sc(NC(=O)CCCOc3ccccc3)c2C(N)=O)C1 (stereo not given) | 103 | 107
CCOC(=O)c1c(Nc2cccc(O)c2)nnc(-c2ccccc2)c1-c1ccccc1 | 107 | 111
COc1cccc(NC(=O)C2CCCN(c3nnc(-n4c(C)ccc4C)s3)C2)c1 (stereo not given) | 105 | 108
COc1ccc(-c2nc(C)c(CCNC(=O)c3cccs3)s2)cc1 | 105 | 111
CCOC(=O)c1sc2ccccc2c1S(=O)(=O)N1CCN(c2ccccc2F)CC1 | 109 | 113
CC(Oc1ccc(F)cc1)C(=O)Nc1cc(-c2ccc(F)c(F)c2)no1 (stereo not given) | 108 | 96
COc1cc2nc(NCCc3ccccc3)n3nc(-c4cccnc4)nc3c2cc1OC | 102 | 101
Cc1cccc(Oc2nc3c(c(=O)n(C)c(=O)n3C)n2C)c1 | 104 | 105
COc1ccc(Cn2ccnc2SCC(=O)Nc2nnc(C)s2)cc1 | 100 | 97
CSc1ncc(Cl)c(C(=O)Nc2c(C(=O)c3ccc(C)cc3)oc3ccccc23)n1 | 119 | 115
CSc1nn(Cc2ccc(Br)cc2)c(N(C(C)=O)C(C)=O)c1S(=O)(=O)c1ccccc1 | 109 | 114
CCN(CC)S(=O)(=O)c1ccc2c(c1)c(=O)c(C(=O)N1CCN(c3ccc(F)cc3)CC1)cn2C | 103 | 98
Cc1nc2nc(NCc3ccc(Cl)cc3)[nH]n2c(=O)c1Cc1ccccc1 | 119 | 118
Cc1ccc(NC(=O)CSc2nc(C3CCCC3)nc3c2c(=O)n(C)c(=O)n3C)c(C)c1 | 103 | 106
Nc1ccc(NC(=O)c2cccc(C(=O)Nc3ccc(N)cc3Cl)c2)c(Cl)c1 | 99 | 96
CCCCC(=O)Nc1cccc(-c2nc3ccccc3s2)c1 | 101 | 99
CCn1c(=O)cc(SCC(=O)NCCc2ccc(OC)cc2OC)c2ccccc21 | 104 | 110
More structures:
SMILES | PV pol inh | PV pol inh intensity
COc1cccc(NC(=O)/C(C#N)=C/c2ccc(-c3ccc(C)cc3)o2)c1 | 110 | 112
Fc1ccccc1N1CCN(c2ncc3c(n2)CCN(Cc2ccc(Br)s2)C3)CC1 | 103 | 111
CCOc1ccc(CCNC(=O)C2CCN(C(=O)c3cc4sccc4n3CC)CC2)cc1OCC | 107 | 106
Cc1c(C(=O)N(C)C)sc2c1c(=O)n(-c1ccc(F)cc1)c(=O)n2Cc1ccccc1C#N | 110 | 105
Cc1cccc(Nc2nc(C)nc(N)c2S(=O)(=O)c2ccccc2)c1 | 107 | 111
CCCS(=O)(=O)N1CC(=O)N(c2cccc(F)c2)C(C)(C(=O)NC2CCCCCC2)C1 (stereo not given) | 109 | 114
CC1Cc2ccccc2N1C(=O)CSc1nnc(-c2cccc(Cl)c2)o1 (stereo not given) | 101 | 107
CCCCCOc1ccc(C2c3c(oc4ccccc4c3=O)C(=O)N2c2nc(C)c(C)s2)cc1OCC (stereo not given) | 101 | 103
CC(NC(=O)c1ccc2c(c1)sc1nc(-c3ccc(F)cc3)cn12)C12CC3CC(CC(C3)C1)C2 (stereo not given) | 110 | 111
CCn1c(SCC(=O)Nc2ccccc2C(=O)OC)nc2ccsc2c1=O | 111 | 117
Cc1c(C(=O)NCc2ccccc2)sc2nc3n(c(=O)c12)CCCCC3 | 101 | 104
CCc1nnc(NC(=O)CSc2nccn2Cc2ccc(C)cc2)s1 | 105 | 108
Cc1cc(C)c(NC(=O)Cn2c(=O)n(CCC(C)C)c(=O)c3cccnc32)c(C)c1 | 101 | 105
Cc1cccc(-c2noc(CN(C(=O)COc3ccc(C(C)C)cc3)C(C)C)n2)c1 | 105 | 108
Cc1cn(C)c(CC(=O)N2CCN(c3cccc(Cl)c3)CC2)c1C(=O)O | 107 | 111
CCc1cnc2c(c1SCC(=O)Nc1ccc(OC)c(OC)c1)c(=O)n(C)c(=O)n2C | 113 | 115
O=C(Cn1nc(C(F)(F)F)c2c1CCCC2)Nc1ccc(F)c(Cl)c1 | 104 | 107
CCn1nnc2cc(C(=O)Nc3ccc(Cl)cc3C)ccc21 | 100 | 96
COc1ccc(OC)c2sc(N3CCN(C(=O)c4ccco4)CC3)nc12 | 102 | 103
CCC(=O)Nc1ccc(-c2nc3ncccc3o2)cc1C | 102 | 104
COc1ccc(-c2coc3c2c(C)cc2oc(=O)c(C)c(C)c23)cc1 | 105 | 106
Cc1cccc(C(=O)N2CCc3cc(CNC(=O)c4cc5ccccc5[nH]4)ccc32)c1 | 99 | 97
COc1ccccc1OCCCn1c(-c2ccc(Cl)cc2)nc2ccccc2c1=O | 102 | 106
CC(C)Oc1ccc(CNS(=O)(=O)c2csc(C(N)=O)c2)cc1 | 106 | 113
Cc1ccc(Cn2c(=O)n(-c3cccc(C(F)(F)F)c3)c(=O)c3c(C)c(C)sc32)c(C)c1 | 108 | 113

Entries of single compounds, quoted from the list. Order of screens: PV pol inh	PV pol inh intensity
COc1ccc(OC)c2sc(N3CCN(C(=O)c4ccco4)CC3)nc12 is listed as 102	103
CC(NC(=O)c1ccc2c(c1)sc1nc(-c3ccc(F)cc3)cn12)C12CC3CC(CC(C3)C1)C2 (stereo not given) is listed as 110	111
CC1Cc2ccccc2N1C(=O)CSc1nnc(-c2cccc(Cl)c2)o1 (stereo not given) is listed as 101	107
CCOc1ccc(CCNC(=O)C2CCN(C(=O)c3cc4sccc4n3CC)CC2)cc1OCC is listed as 107	106
Cc1cn(C)c(CC(=O)N2CCN(c3cccc(Cl)c3)CC2)c1C(=O)O is listed as 107	111

The list continues:
SMILES | PV pol inh | PV pol inh intensity
N#Cc1c(N)n(-c2cccc(Cl)c2)c2nc3ccccc3nc12 | 108 | 110
c1ccc(Cc2nnc(SCc3nc(-c4cccs4)no3)n2-c2ccccc2)cc1 | 103 | 109
Cc1cc(C)c(NC(=O)C(C)n2nc(-c3ccc(C)c(C)c3)ccc2=O)c(C)c1 (stereo not given) | 112 | 111
COc1cccc(CN2C(=O)c3ccccc3Sc3ccc(C(=O)NCCc4ccc(Cl)cc4)cc32)c1 | 113 | 114
N#Cc1c(-c2ccccc2)cc(-c2ccccc2)nc1SCC(=O)Nc1ccc(Cl)cc1 | 106 | 109
CCc1ccc(NC(=O)N2c3ccccc3Sc3ccccc32)cc1 | 107 | 108
O=C(NCc1ccc2c(c1)CCN2C(=O)c1ccncc1)c1ccccc1Cl | 105 | 110
CCn1c(C)c(C)c2cc(C(=O)NCCCN3CCCCC3)ccc21 | 105 | 101

Sorted by count of non-hydrogen atoms (descending): some entries from above
SMILES | PV pol inh | PV pol inh intensity
COc1ccc(NC(=O)CSc2oc(-c3ccco3)nc2S(=O)(=O)c2ccc(Br)cc2)c(OC)c1 | 101 | 101
COc1cccc(Cn2nc(SC)c(S(=O)(=O)c3ccccc3)c2N(C(C)=O)C(C)=O)c1 | 109 | 113
COc1cccc(-c2nn(C)c3sc(C(=O)NCc4ccc(C)cc4)cc23)c1 | 107 | 109
